From PubChem
CBX7 AlphaScr: CBX7 chromodomain binding inhibitors, primary screen, biochemical, AlphaScreen; Chromobox protein homolog 7 (Homo sapiens), O95931; AlphaScreen His6-CBX7 / biotin-H3K27me3 peptide binding; hits give low values; normalised signal (fraction of DMSO) (test concentration not listed); 1.1% of 66,000 active; AID 1224903, 2016; in the data active means normalised signal below about 0.5;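 further: 100 nL library stock added to about 20 µL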
Target sequence (O95931 whole entry, looked up): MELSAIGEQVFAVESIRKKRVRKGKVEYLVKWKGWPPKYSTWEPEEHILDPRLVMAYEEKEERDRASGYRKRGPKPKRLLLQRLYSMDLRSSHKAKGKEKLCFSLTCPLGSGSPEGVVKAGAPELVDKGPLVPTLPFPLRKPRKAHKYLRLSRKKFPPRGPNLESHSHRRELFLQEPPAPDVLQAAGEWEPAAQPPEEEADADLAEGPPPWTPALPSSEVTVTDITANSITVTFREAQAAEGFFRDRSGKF
CBX7 AlphaScr z-score: recorded beside CBX7 AlphaScr, whose call it bears; z-score; measured here: z-score of CBX7 signal; some inactives read as strong as hits; reference of the scale not given here;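 same signal on another scale; lower means less binding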
* = called active by the depositor; & = joins results of further samples.

SMILES | CBX7 AlphaScr | CBX7 AlphaScr z-score
COc1cc2[nH]c(=O)n(CCCCCC(=O)NCc3ccccc3Cl)c(=O)c2cc1OC | 1 | 0.92
Cc1cc(NC(=O)c2cc(-c3ccccc3Cl)nc3ccccc23)no1 | 0.96 | -1.3
O=C(C1COc2ccccc2O1)N1CCn2c(nc3ccccc32)C1 (configuration not stated) | 0.99 | -0.35
CCOCCCNC(=O)CN1C(=O)CC(C)(C)S(=O)(=O)c2ccccc21 | 0.97 | -0.75
CC(Oc1ccccc1)C(=O)N1CCCCCC1 (configuration not stated) | 1.1 | 0.72
CCN(CCCNC(=O)c1cc2c(-c3ccc(OC)c(OC)c3)nn(C)c2s1)c1cccc(C)c1 | 0.78 | -2.9
CN(C)C(=O)C(=O)c1c(-c2ccccc2)cc2ccccn12 | 0.96 | -0.69
O=C(Nc1ccccc1Cl)C(Cc1ccccc1)NS(=O)(=O)c1cccc2cccnc12 (configuration not stated) | 0.78 | -1.9
CCc1ccc(NC2c3ccccc3C(=O)N2Cc2ccccc2)cc1 (configuration not stated) | 0.86 | -2.1
Cc1ccc(CCNC(=O)c2c[nH]n3c(=O)c(Cc4cc(C)ccc4C)c(C)nc23)cc1 | 0.97 | -1.4
Cc1cccc(N2CCN(C(=O)CCCCn3c(=O)[nH]c4ccccc4c3=O)CC2C)c1 (configuration not stated) | 0.72 | -0.79
CCC(C)NC(=O)C1C2C=CC3(CN(Cc4cccs4)C(=O)C13)O2 (configuration not stated) | 1.2 | 3.2
O=C(CSc1nc2ccccc2[nH]1)NCc1n[nH]c(=O)c2ccccc12 | 1 | 0.29
CCCCNC(=O)C1C2C=CC3(CN(CC(=O)OCC)C(=O)C13)O2 (configuration not stated) | 1 | 0.26
O=C(Nc1ccc(-c2noc(-c3ccc(F)cc3)n2)cc1)c1ccc2c(c1)OCO2 | 1.2 | 2.1
C=CCN(c1ccccc1)S(=O)(=O)c1ccc2c(c1)CCN2C(=O)C1CCC1 | 1.3 | 1
COc1ccc(C(=O)N(Cc2nc(-c3cccc(C)c3)no2)C(C)C)cc1OC | 0.95 | -1.1
COCCCN1C(=O)Cn2cccc2C1C(=O)NC1CCCCC1 (configuration not stated) | 1.1 | 1
Cc1cc(OCc2nc(-c3ccccc3)no2)cc(C)c1Cl | 1.5 | 6.1
CCOc1ccc(C(=O)Nc2ccccc2-c2nc3ccccc3[nH]2)cc1 | 1.1 | 1.3
O=C(NCCCN1CCOCC1)c1cc(=O)[nH]c2ccc(S(=O)(=O)N3CCCCC3)cc12 | 1 | 0.018
CCC(=O)N1CCc2cc(S(=O)(=O)NCCCN3CCN(Cc4ccccc4)CC3)ccc21 | 0.99 | -0.28
CCc1ccccc1Nc1nc(-c2c(C)nc3ncccn23)cs1 | 0.77 | -10
COc1ccc(C(=O)N2CC(=O)Nc3ccc(F)cc3C2c2ccccc2)cc1OC (configuration not stated) | 0.96 | -0.073
COc1ccc2c(c1)CCc1sc(NC(=O)c3ccccc3C)nc1-2 | 0.98 | -0.32
SMILES | CBX7 AlphaScr | CBX7 AlphaScr z-score
CN(CC(=O)Nc1ccc(Br)cc1)S(=O)(=O)c1cnc[nH]1 | 1.1 | 1.3
COc1ccc(NC(=O)C(c2ccc(OC)cc2)N(C)C(=O)c2cnccn2)cc1 (configuration not stated) | 0.93 | -1.5
COc1ccc(C(=O)NCCc2c(C)[nH]c3c(Cl)cccc23)cc1OC | 1 | 0.022
COc1ccc(OC)c(CNC(=O)CCc2cn(C)c3ccccc23)c1 | 0.95 | -2.1
CNC(=O)C1CC(=O)N(CCc2ccc(C)cc2)C1 (configuration not stated) | 0.99 | -0.29
COc1ccc(-c2cc(C(=O)Nc3sc4c(c3C#N)CCCC4)no2)cc1OC | 1.2 | 1.7
O=C(Nc1c(C(=O)N2CCCC2)cnn1-c1ccccc1)c1cccc(F)c1 | 0.96 | -0.39
COc1ccccc1CNC(=O)CN1CCN(Cc2cccc(C)c2)C1=O | 0.96 | -0.56
Cc1ccc(NC(=O)Cn2cnc3c(nnn3Cc3ccc(F)cc3)c2=O)c(C)c1 | 0.79 | -3.4
O=C(CCc1nc(-c2ccccc2F)no1)Nc1ccc(Cl)cn1 | 0.85 | -2.4
CN1CCN(CCCNC(=O)c2cc(=O)[nH]c3ccc(S(=O)(=O)N4CCCCC4)cc23)CC1 | 1.1 | 0.77
COc1ccc(C(=O)Nc2cc(-c3nc4ncccc4o3)ccc2C)cc1 | 1 | 0.81
Cc1ccc(C)c(N2CCN(S(=O)(=O)c3ccc4c(c3)CCN4C(=O)C3CCC3)CC2)c1 | 0.99 | -0.47
COc1ccc(NC(=O)Nc2nnc(-c3ccccc3)s2)cc1 | 0.98 | -0.25
COC(=O)c1cc2c(cc1NC(=O)Cn1ncc3c1-c1ccccc1OC3)OCO2 | 1.1 | 0.85
Cc1ccc(CNC(=O)c2ccc3c(c2)N(Cc2ccc(F)cc2)C(=O)c2ccccc2S3)cc1 | 0.99 | -0.27
CC(=O)N1CCc2cc(S(=O)(=O)NCCCOC(C)C)ccc21 | 1.3 | 3.4
CCc1cccc(C)c1NC(=O)c1csc2c1CCCCC2 | 1.1 | 2.2
CCc1ccc(OCC(=O)N(Cc2nc(-c3ccc(Cl)cc3)no2)C(C)C)cc1 | 0.9 | -0.98
CCc1ccccc1NC(=O)C1CC(c2cc(OC)ccc2OC)=NO1 (configuration not stated) | 1 | 1.5
NS(=O)(=O)c1ccc(CCNC(=O)Nc2cccc(Cl)c2)cc1 | 0.97 | -0.3
Cc1ccc(C(=O)Nc2c(C(=O)Nc3ccc(Cl)cc3)cnn2-c2ccccc2)cc1 | 1 | 0.68
Cc1ccccc1NC(=O)c1cc2c(s1)-c1ccccc1OC2 | 1.3 | 6.8
CCCNC(=O)c1ccc2c(c1)N(Cc1ccccc1C)C(=O)CS2 | 1.1 | 0.49
COc1ccc(-c2nnc(NC(=O)c3ccccc3C)s2)cc1OC | 1.6 | 2.2

Arranged by molecular weight (smallest number first): part of the list above
SMILES | CBX7 AlphaScr | CBX7 AlphaScr z-score
CNC(=O)C1CC(=O)N(CCc2ccc(C)cc2)C1 (configuration not stated) | 0.99 | -0.29
CCc1cccc(C)c1NC(=O)c1csc2c1CCCCC2 | 1.1 | 2.2
Cc1ccccc1NC(=O)c1cc2c(s1)-c1ccccc1OC2 | 1.3 | 6.8
COc1ccc(NC(=O)Nc2nnc(-c3ccccc3)s2)cc1 | 0.98 | -0.25
O=C(CCc1nc(-c2ccccc2F)no1)Nc1ccc(Cl)cn1 | 0.85 | -2.4
CCCNC(=O)c1ccc2c(c1)N(Cc1ccccc1C)C(=O)CS2 | 1.1 | 0.49
COc1ccc(-c2nnc(NC(=O)c3ccccc3C)s2)cc1OC | 1.6 | 2.2
COc1ccccc1CNC(=O)CN1CCN(Cc2cccc(C)c2)C1=O | 0.96 | -0.56
COc1ccc(C(=O)NCCc2c(C)[nH]c3c(Cl)cccc23)cc1OC | 1 | 0.022
O=C(Nc1c(C(=O)N2CCCC2)cnn1-c1ccccc1)c1cccc(F)c1 | 0.96 | -0.39
Cc1ccc(NC(=O)Cn2cnc3c(nnn3Cc3ccc(F)cc3)c2=O)c(C)c1 | 0.79 | -3.4
COc1ccc(-c2cc(C(=O)Nc3sc4c(c3C#N)CCCC4)no2)cc1OC | 1.2 | 1.7
Cc1ccc(C)c(N2CCN(S(=O)(=O)c3ccc4c(c3)CCN4C(=O)C3CCC3)CC2)c1 | 0.99 | -0.47
CN1CCN(CCCNC(=O)c2cc(=O)[nH]c3ccc(S(=O)(=O)N4CCCCC4)cc23)CC1 | 1.1 | 0.77

(next part)
SMILES | CBX7 AlphaScr | CBX7 AlphaScr z-score
Cc1ccc(-c2nnc(Nc3ccc(OCC(N)=O)cc3)c3ccccc23)cc1S(=O)(=O)N1CCOCC1 | 0.84 | -1.3
CC(C)=CCCc1cc(C(=O)Nc2nccs2)c2ccccc2n1 | 0.93 | -0.95
Cc1ccccc1-c1nc(CN2CCC(C(=O)NCCN3CCCC3)CC2)c(C)o1 | 1.1 | 3.5
CCOc1ccc(-c2nn(C)c(C)c2Oc2ccccc2)c(O)c1 | 0.99 | -0.029
Cn1c(-n2c(CN3C(=O)c4ccccc4C3=O)nc3ccccc3c2=O)nc2ccccc21 | 1.2 | 1.8
O=C(Nc1ccc(F)c(Cl)c1)c1cc2n(n1)C(C(F)(F)F)CC(c1cccs1)N2 (configuration not stated) | 1 | -0.036
CCOC(=O)c1c(C)n(C)c2ccc(OCC(O)CNc3ccc(OC)cc3)cc12 (configuration not stated) | 0.8 | -8.7
O=C1CCCc2c1[nH]c1ccc(Oc3ccccc3)cc21 | 0.86 | -2.2
COc1ccc(Br)cc1C(=O)Nc1ccc(O)c(-c2nc3ccccc3s2)c1 | 1.1 | 1.8
COc1cc(-n2c(C)nc3cc(C(=O)NCc4cccnc4)ccc32)cc(OC)c1OC | 1.1 | 2.9
Cc1cccc(NC(=O)Nc2ccc3snnc3c2)c1 | 1 | 0.37
O=C1CCN(C2CC(=O)N(c3ccc(Cl)cc3)C2=O)[C@@H]2CCCC[C@@H]12 (some centres not stated) | 1.1 | 1.3
O=C(COc1ccc2ccccc2c1)Nc1nc(-c2ccccc2)cs1 | 1.2 | 1.4
Cc1ccc(C(=O)N2CCN(c3ncccn3)CC2)cc1NC1=NC2CS(=O)(=O)CC2S1 (configuration not stated) | 1 | 0.47
COCCCNC(=O)c1cc2c(-c3ccc(Cl)cc3)nn(C)c2s1 | 0.8 | -0.83
CCC1CCCCN1S(=O)(=O)c1ccc2[nH]c(=O)cc(C(=O)NCc3ccccc3Cl)c2c1 (configuration not stated) | 0.89 | -1.3
CCOc1ccc(CCNC(=O)c2ccc3c(c2)N=C(CC)c2cc(C)ccc2S3)cc1 | 0.95 | -2.4
CCc1ccc(C2CC(c3cccc(F)c3)n3ncnc3N2)cc1 (configuration not stated) | 0.97 | -0.99
Cc1c(Cl)cccc1NS(=O)(=O)c1ccc2[nH]cc(C(=O)N3CCCC3)c(=O)c2c1 | 0.9 | -1.9
Cc1ccc(NC(=O)CCc2nnc3ccc(NCCCN4CCOCC4)nn23)cc1 | 1 | 0.44
COCc1cc(C)nc(SCC(=O)Nc2cccc3ccccc23)c1C#N | 1.1 | 1.3
CCOc1ccc(C(=O)Nc2c3c(nn2-c2cccc(Cl)c2)CSC3)cc1 | 1.1 | 1.6
CC1CCCC(C)N1C(=O)c1csc2c1CCCC2 (configuration not stated) | 1 | 0.31
COc1ccc(-c2nc(CN3CCC(C(=O)NC4CCCCC4)CC3)c(C)o2)cc1 | 1.1 | 1.5
CCOc1ccc(-c2nc(CSCC(=O)NCc3cccnc3)c(C)o2)cc1 | 0.87 | -1.8
SMILES | CBX7 AlphaScr | CBX7 AlphaScr z-score
CCOC(=O)C1CCCN(c2c(NCC3COc4ccccc4O3)c(=O)c2=O)C1 (configuration not stated) | 1.1 | 4.4
O=C(NC1CCCC1)C1c2cccn2CC(=O)N1CCCN1CCOCC1 (configuration not stated) | 1 | 0.064
Brc1ccc2nc(N3CCN(c4ccccc4)CC3)nc(-c3ccccc3)c2c1 | 1.2 | 0.88
CCN1CCCC(NC(=O)c2scc3c2CCCC3)C1 (configuration not stated) | 1.1 | 3.1
Cn1c(-c2nonc2NC(=O)c2ccccc2F)nc2ccccc21 | 1&0.91 | -0.049&-1.3
CCCCN(C)CCCNC(=O)c1cc(=O)[nH]c2ccc(S(=O)(=O)N3CCCCC3)cc12 | 1 | 0.98
CC(C)OCCCNC(=O)Cc1ccc(NC2=NC3CS(=O)(=O)CC3S2)cc1 (configuration not stated) | 1.1 | 0.83
COc1ccc(CCN2C(=O)c3ccccc3C2C(=O)NC2CCCC2)cc1OC (configuration not stated) | 1 | 0.56
CSc1ccc(/C=C/c2nc3ccccc3n2S(=O)(=O)c2ccccc2)cc1 | 1.4 | 5
O=C(NCC1(c2ccccc2)CCCC1)c1ccccc1F | 1.1 | 4.4
CCOC(=O)c1ccc(NC(=O)C2(c3ccc(OC)c(OC)c3)CCOCC2)cc1 | 1 | 0.34
COc1ccc(-n2nc(C(=O)N3CCCCCC3)c3ccccc3c2=O)c(OC)c1 | 0.96 | -1
COc1ccccc1OCCn1c(SCCOc2ccc(C)cc2)nc2ccccc21 | 1.1 | 1.5
CCOC(=O)c1cnc2ccc(OCC)cc2c1Nc1cc(C)c(Cl)cc1OC | 1 | 0.26
CCCCN(C)CCNS(=O)(=O)c1ccc2c(c1)CCN2C(=O)C1CCC1 | 1.1 | 3.8
CCSc1oc(-c2cccs2)nc1S(=O)(=O)c1ccc(C)cc1 | 0.99 | -0.024
COc1ccc(-c2csc(NC(=O)c3ccccc3)n2)cc1 | 1 | 0.13
O=C(Cc1ccc(Cl)cc1)Nc1ccc2oc(-c3ccc(F)cc3)nc2c1 | 1.3 | 2.1
CCS(=O)(=O)NCCc1cc2c(OC)ccc(OC)c2[nH]c1=O | 1 | 0.3
Cc1ccc2cc(CCNC(=O)c3c(-c4ccccc4Cl)noc3C)c(=O)[nH]c2c1 | 1 | 1.7
COc1ccc(Nc2nnc(-c3ccc(C)c(S(=O)(=O)NCc4ccccn4)c3)c3ccccc23)cc1 | 1.1 | 0.49
CCc1ccccc1NC(=O)C1CCCN1S(=O)(=O)c1ccc2c(c1)n(C)c(=O)c(=O)n2C (configuration not stated) | 1.2 | 2.2
O=C(NC1CCCC1)c1ccc2c(c1)N(Cc1ccccc1)C(=O)CS2 | 0.78 | -0.88
Cc1cccc(C)c1NC(=O)C(c1ccccc1)N1CCc2ccccc21 (configuration not stated) | 0.87 | -2.8
Cc1ccc(-n2cc(-c3ccc(Br)cc3)[nH]c2=O)cc1F | 1 | 1.4

This is a subset, so the mix of outcomes need not match the whole.
